Source: PubChem BioAssay (several laboratories)
Fam108B counter = Fam108B inhibition, counter-screen for RBBP9 inhibitors; recombinant Fam108B, FP-Rh probe fluorescence polarization; inhibition, % at 9.51 µM; hit rate 0.33% among 300,000; AID 1947;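 active = inhibition above the screen mean inhibition plus 3 SD, computed separately per campaign, cut at about 18% in these data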;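 note: inhibitors lower polarization as less probe binds the enzyme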
PME-1 primary = blocks human protein phosphatase methylesterase 1; AID 2130; hit rate 0.53% among 320,000; inhibition, % at 5.9 µM; recombinant PME-1, FP-Rh probe fluorescence polarization; Q9Y570;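 active = inhibition above the campaign mean of all compounds plus 3 SD, cut at about 26% in these data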;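 note: competitive labeling of PME-1 active site by serine hydrolase directed probe; 0% = PME-1 with DMSO and 100% = wells lacking PME-1 enzyme; inhibitors block probe labeling so polarization falls and inhibition rises; many of its hits are not listed in these tables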
Target sequence (Q9Y570 whole entry, looked up): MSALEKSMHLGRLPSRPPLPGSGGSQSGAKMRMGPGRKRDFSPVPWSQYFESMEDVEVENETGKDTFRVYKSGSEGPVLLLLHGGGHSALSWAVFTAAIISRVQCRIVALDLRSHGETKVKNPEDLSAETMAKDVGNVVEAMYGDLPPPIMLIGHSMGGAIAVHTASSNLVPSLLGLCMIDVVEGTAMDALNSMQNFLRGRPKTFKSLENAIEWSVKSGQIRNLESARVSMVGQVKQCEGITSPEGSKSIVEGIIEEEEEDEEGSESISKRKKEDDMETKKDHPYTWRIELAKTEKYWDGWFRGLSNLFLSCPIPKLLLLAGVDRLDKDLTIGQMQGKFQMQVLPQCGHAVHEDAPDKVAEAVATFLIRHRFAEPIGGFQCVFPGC
MEX-5 binding = C. elegans MEX-5 TCR-2 RNA binding activity; MEX-5/FITC-TCR2 RNA binding, fluorescence polarization; active compounds read low; activity score (negative = inhibition of binding), % at 10 µM; Q9XUB2; AID 1832; hit rate 0.38% among 300,000;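 active = inhibition past about -25% in most replicates, and total fluorescence under double the plate's negative control median, limit read from the data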;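 note: 0% = DMSO and -100% = 5 µM competing unlabeled TCR2 RNA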
pPAFAH inh = inhibitors of human plasma PAF acetylhydrolase (pPAFAH). AID 463082. hit rate 1.5% among 330,000. recombinant pPAFAH, FP-rhodamine probe fluorescence polarization. inhibition, % at 3.39 µM. Q13093;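 active = inhibition above the mean inhibition across the screen plus 3 SD, cut at about 25% in these data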;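 note: inhibitors block binding of the rhodamine activity-based probe so polarization drops; 0% = enzyme with DMSO and 100% = wells lacking pPAFAH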
GLD-1 TGE inh = GLD-1-TGE RNA interaction inhibition (C. elegans); Q17339; inhibition, % at 5.96 µM; purified GLD-1 + fluorescein TGE RNA, fluorescence polarization; AID 2280; hit rate 0.44% among 320,000;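 active = percent inhibition above a per-plate cutoff, the plate mean of test compounds plus 3 SD, cut at about 30% in these data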;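 note: 0% = DMSO wells with GLD-1 and probe and 100% = wells lacking GLD-1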
Target sequence (Q17339 whole entry, looked up): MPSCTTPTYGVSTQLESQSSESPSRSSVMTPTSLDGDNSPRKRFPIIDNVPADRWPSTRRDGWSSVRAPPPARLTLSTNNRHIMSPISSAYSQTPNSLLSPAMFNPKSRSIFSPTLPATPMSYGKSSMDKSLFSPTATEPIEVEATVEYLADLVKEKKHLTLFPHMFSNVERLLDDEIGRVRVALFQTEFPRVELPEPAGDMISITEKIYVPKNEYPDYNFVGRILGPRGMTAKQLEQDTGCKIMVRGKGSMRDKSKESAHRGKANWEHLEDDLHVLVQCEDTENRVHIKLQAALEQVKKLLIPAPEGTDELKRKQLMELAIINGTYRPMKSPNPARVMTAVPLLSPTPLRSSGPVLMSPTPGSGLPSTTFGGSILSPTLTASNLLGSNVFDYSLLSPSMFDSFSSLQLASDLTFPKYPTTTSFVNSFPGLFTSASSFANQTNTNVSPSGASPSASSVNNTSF
Bcl-xL primary = Bcl-xL (human) inhibition. Q07817. GST-Bcl-xL / FITC-Bim BH3 peptide fluorescence polarization. inhibition, % at 10.9 µM. hit rate 0.7% among 320,000;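 active = inhibition above the mean of all tested compounds plus 3 SD, cutoff set per campaign, cut at about 30% in these data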;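 note: 0% = DMSO wells and 100% = unlabeled Bim-BH3 peptide competitor; inhibitors lower millipolarization by displacing the labeled peptide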
Target sequence (Q07817 whole entry, looked up): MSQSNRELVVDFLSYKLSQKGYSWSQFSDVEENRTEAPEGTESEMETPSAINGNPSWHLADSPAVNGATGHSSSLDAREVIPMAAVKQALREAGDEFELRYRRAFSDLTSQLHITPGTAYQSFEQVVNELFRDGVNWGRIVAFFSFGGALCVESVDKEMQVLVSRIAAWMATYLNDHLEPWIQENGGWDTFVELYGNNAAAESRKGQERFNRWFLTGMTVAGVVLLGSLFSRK
AHR activator = human AHR activation. P35869. AHR-responsive luciferase reporter cells, luminescence. activation, % at 5 µM. hit rate 2.5% among 320,000; in the data active = activation above about 47%;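 note: 0% = vehicle wells and 100% = reference agonist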
MCL1-BIM inh = MCL1-BIM-BH3 interaction inhibition (human); Q07820; GST-MCL1 / FITC-Bim-BH3 fluorescence polarization; inhibition, % at 10.9 µM; hit rate 0.68% among 320,000; AID 2057;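 active = inhibition above the mean inhibition of all tested compounds plus 3 SD, set per campaign, cut at about 40% in these data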;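 note: 0% = DMSO wells and 100% = unlabeled Bim-BH3 peptide control; higher means more loss of mP so more displacement of Bim peptide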
* marks the source's active call; other numbers are inactive results; · = no result given. Some of the compounds tested; the hit share may differ from the screen's.

molecule	MEX-5 binding	AHR activator	Fam108B counter	MCL1-BIM inh	PME-1 primary	GLD-1 TGE inh	Bcl-xL primary	pPAFAH inh
CSCCC(NC(=O)COc1ccccc1)C(=O)OCCOc1ccc(Br)cc1 (stereo not given)	-1.6	4	-6	-12	-7	0	-10	8
CCCCC(NC(=O)COc1cc2c(c3oc(=O)cc(C)c13)CCC(C)(C)O2)C(=O)O (stereo not given)	-1.7	0	-3	-5	0	1	2	18
COc1ccc([C@@H]2CC=C(C(=O)O)[C@H](c3cccc(Cl)c3)N2S(=O)(=O)c2ccc(Cl)cc2)cc1	·	-1	-3	4	-8	3	10	2
Nc1nc(SCc2ccc(Cl)cc2)[nH]c(=O)c1-c1ccccc1	-2.0	-8	0	3	-1	8	3	5
CCC1(C)Cc2ccccc2-c2nc3n(c(=O)c21)CC(C(=O)O)S3 (stereo not given)	3.1	2	-4	4	-5	0	6	2
NC(=O)NC(Cc1ccccc1)C(=O)N1CCN(S(=O)(=O)c2ccc(Cl)cc2)CC1 (stereo not given)	·	-1	·	-4	5	0	-2	-3
O=C(Nn1cnnc1)c1cc(-c2cccc(Br)c2)nc2ccccc12	5.4	15	-4	-1	-1	2	-11	10
Cn1c(=S)[nH]c2c(c1=O)C(C)(C)Cc1ccccc1-2	1.0	6	-2	-3	3	-1	-5	-2
CCc1nnc(NC(=O)CSc2nnc(CNc3ccc(Cl)cc3)o2)s1	1.3	5	8	10	-5	-3	6	10
O=C(COC(=O)CSc1ccc(F)cc1)NC1CCCCCC1	·	-1	·	-17	-7	0	-7	21
CC(C)c1nnc(NC(=O)c2cccs2)s1	1.4	53*	4	2	3	-10	-3	0
O=C(O)/C=C\c1cn(-c2ccccc2)nc1-c1cc2ccccc2o1	-0.1	20	-25	3	-15	1	9	-11
N#CC1=C(SCc2ccccc2)NC(=O)C(C#N)C12CCCC2 (stereo not given)	2.0	7	6	9	-4	-5	6	4
CC1CCN(S(=O)(=O)c2cccc(C(=O)Nc3ccccc3)c2)CC1	-0.6	5	-3	0	-7	1	6	-8
N#CC1=C(N)NC(SCC(=O)c2ccc(Br)cc2)=C(C#N)C12CCCCC2	-2.2	36	-3	6	9	3	4	10
Cc1nn(-c2ccc(F)cc2)c2sc(C(=O)O)cc12	-0.8	6	1	9	3	3	9	5
Cc1ccc(CSC2=CS(=O)(=O)c3ccccc3N2)cc1	-0.1	0	-1	3	7	1	2	-3
O=C(NNS(=O)(=O)c1ccc2ccccc2c1)NC1CCCCC1	·	-1	1	3	2	6	4	3
O=S1(=O)CCO[C@H]2Cc3ccccc3[C@H]2N1Cc1ccc(F)cc1	-1.2	0	-4	6	1	4	3	0
Cc1ccc(C(=O)NC(Cc2ccc(C(C)(C)C)cc2)C(=O)O)cc1 (stereo not given)	·	·	·	·	·	·	·	0
Cc1ccc(C2(c3noc(CN4CCC(c5ccncc5)CC4)n3)CCCC2)cc1	1.2	3	-1	4	4	-6	7	12
COc1ccccc1CNC(=O)CSc1ccc(C)cc1	-4.6	2	2	3	5	1	-1	-2
Cc1ccc(S(=O)(=O)N2[C@@H](c3ccc(F)cc3)C(C(=O)O)=CC[C@H]2c2cccc(Cl)c2)cc1	·	3	-4	2	-2	3	2	-4
CC1CCN(S(=O)(=O)c2ccc(NC(=O)CN3CCCC(C)C3)cc2)CC1 (stereo not given)	-1.7	1	0	-7	2	2	0	6
CC(=O)OCCC(NS(=O)(=O)OCC(Cl)(Cl)Cl)c1ccccc1 (stereo not given)	-2.0	5	3	2	2	-4	6	1
O=C1Nc2cc(Cl)c(Cl)cc2N(O)N1c1ccc(Cl)c(Cl)c1	2.8	57*	7	-2	6	1	4	3
Cc1ccc(S(=O)(=O)/N=C(/Nc2ccc(O)c(C(=O)O)c2)c2ccccc2)cc1	·	0	·	-9	-8	0	-3	4
S=c1[nH]nc(-c2cccnc2)n1/N=C/c1ccccc1	-0.6	4	0	-24	-4	-7	-28	5
Cc1cc(=O)[nH]c(SCC(=O)Nc2ncc(S(=O)(=O)c3ccc([N+](=O)[O-])cc3)s2)n1	-2.6	-2	2	6	-2	0	9	3
Nc1nc(N2CCN(c3ccc(Cl)cc3)CC2)n[nH]1	0.5	1	1	3	-4	7	10	1
CCC1(C(=O)c2ccc(Cl)cc2)C2c3ccccc3OC(=O)C21C(=O)Nc1ccccc1 (stereo not given)	-0.3	2	-1	4	-9	6	-4	-6
Cc1ccc(SC(C)C(=O)O/N=C(\N)c2ccncc2)cc1 (stereo not given)	2.6	2	3	11	4	0	1	-1
O=c1cc(CSc2ccc(Cl)cc2)nc(-c2ccccn2)[nH]1	1.7	-1	1	7	-2	6	0	19
O=C(Nc1ccc(Sc2ccc(Br)cc2)cc1)c1ccco1	-3.2	6	-7	-6	-9	6	-2	5
O=[N+]([O-])c1cccc(C(=Nc2ccc(Cl)cc2)NO)c1	-0.7	67*	1	-1	3	3	-1	10
O=S(=O)(NCCC1CC1(Cl)Cl)c1ccc(Cl)cc1 (stereo not given)	2.6	-1	2	-4	0	0	1	9
NS(=O)(=O)c1ccc(CCNC(=O)COC(=O)CCSc2ccc(Cl)cc2)cc1	1.1	19	-1	-8	-2	-4	-4	4
O=C(COC(=O)CNC(=O)c1ccco1)NCc1ccc(F)cc1	1.1	0	1	1	1	-6	-2	-1
O=C(O)/C(=C\c1cccc(OCc2ccccc2)c1)c1ccc(F)cc1	-0.3	0	-8	5	-4	-2	4	0
CCCCCOc1ccc(C(=O)C(c2ccccc2)N2CCOCC2)cc1 (stereo not given)	0.2	1	6	4	-8	3	4	14
O=S(=O)(Nc1cccc(-c2cn3cccnc3n2)c1)c1ccc(Cl)cc1	0.1	6	1	1	5	0	4	5
Nc1nc(CSc2ccc(Cl)cc2)nc(N2CCCCC2)n1	·	-1	-4	3	6	3	-3	5
Cc1ccc([C@@H]2CC=C(C(=O)O)[C@H](c3ccccc3F)N2S(=O)(=O)c2ccc(C)cc2)cc1	·	-4	-2	9	-7	5	2	-2
Cc1ccc(N(C)C(=O)c2cc(S(=O)(=O)N3CCc4ccccc43)cn2C)cc1	1.6	0	-2	-6	-1	5	5	-1
Cc1ccc(SCC(=O)OCC(=O)NC(C)c2ccc(Br)cc2)cc1 (stereo not given)	1.8	2	-6	0	-1	8	2	20
CC(C1CC1)N(C(=O)c1ccccc1O)c1ccccc1 (stereo not given)	1.5	2	-1	2	2	5	0	-2
N#Cc1nc(COc2ccc(Cl)cc2)oc1N1CCCCCC1	·	0	2	1	9	9	5	8
O=C(CCNS(=O)(=O)c1ccc(Br)cc1)N1CCCCCCC1	-0.2	0	6	-5	0	6	4	6
O=C(NCCc1c[nH]c2ccccc12)c1cc(S(=O)(=O)N2CCCCC2)ccc1N1CCOCC1	0.9	10	5	-9	8	7	1	5
N/C(CSc1ccc(Cl)cc1)=N\S(=O)(=O)c1ccc(Cl)cc1	·	-2	2	-1	4	9	1	-2
O=S(=O)(NCCc1ccc(Cl)cc1)c1cccs1	0.2	4	9	-1	6	-6	0	17
CC(NC(=O)CC12CC3CC(CC(C3)C1)C2)C(=O)O (stereo not given)	0.9	-1	3	-6	0	3	1	7
COc1ccccc1S(=O)Cc1ccc(C(=O)NCCc2ccc(Cl)cc2)o1 (stereo not given)	-3.6	0	0	1	-4	0	4	-1
Cc1ccc([C@@H]2CC=C(C(=O)O)[C@H](c3cccc(Cl)c3)N2S(=O)(=O)c2ccccc2C)cc1	·	0	·	·	·	1	·	6
CC1CCCC(C)N1C(=O)CSc1nnc(COc2ccccc2)n1-c1ccccc1 (stereo not given)	-0.4	0	4	7	5	1	0	2
CC(Nc1nc(-c2ccc3c(c2)NC(=O)CO3)cs1)c1ccccc1 (stereo not given)	2.3	9	8	4	0	14	4	13
O=C(NCc1ccco1)C1(c2ccc(Cl)cc2)CCCC1	·	-1	-1	5	7	-3	0	2
CCCc1cc(=O)[nH]c(SCC(=O)Nc2ncc(S(=O)(=O)c3ccc([N+](=O)[O-])cc3)s2)n1	-3.2	1	0	-4	4	-3	-1	8
CCCOc1ccc(C(=O)CCCC(=O)c2ccc(OCCC)cc2)cc1	-4.2	-1	3	1	2	-2	2	-6
Cc1noc(C)c1C(=O)Nc1nc(C23CC4CC(CC(C4)C2)C3)cs1	-3.0	4	-3	9	-2	-1	-6	-4

(further entries)
molecule	MEX-5 binding	AHR activator	Fam108B counter	MCL1-BIM inh	PME-1 primary	GLD-1 TGE inh	Bcl-xL primary	pPAFAH inh
CCCc1cc(=O)[nH]c(SCC(=O)N2CCN(S(=O)(=O)c3ccc(Cl)cc3)CC2)n1	-4.5	8	10	-1	5	0	-1	3
COC(=O)[C@@]1(Cc2ccccc2)[C@H]2C(=O)N(C)C(=O)[C@H]2[C@H]2CN=C(SCc3ccc(C#N)cc3)N21	·	·	·	·	·	·	·	3
Cc1c(OCC(=O)NC(Cc2ccc(Cl)cc2)C(=O)O)ccc2c(-c3ccccc3)cc(=O)oc12 (stereo not given)	-1.2	1	-23	9	-1	-9	8	8
Clc1ccc(SCCOCCN2CCOCC2)cc1	-1.5	-1	-3	-5	3	10	2	0
O=C(CCCC(=O)Nc1ccc(Br)cc1)N/N=C/c1ccccc1	1.0	6	-3	-2	2	5	2	2
O=C(NCCN1CCOCC1)c1cccc(NS(=O)(=O)c2ccc(Br)cc2)c1	2.4	1	3	0	3	-10	3	2
CC(C)CC(NC(N)=O)C(=O)NCCc1ccc(Cl)cc1Cl (stereo not given)	1.1	1	2	-1	-5	0	-5	-1
COc1cccc(NC(=O)CSc2nnc(-c3cccs3)n2C)c1	0.4	-4	1	1	-2	-13	0	3
O=C(c1ccc(Cl)s1)N1CCN(S(=O)(=O)c2ccc(Cl)cc2)CC1	·	-2	·	·	·	5	·	4
O=S1(=O)CC(NCc2ccccc2)C(Nc2ccccc2)C1 (stereo not given)	-1.0	1	-1	7	-7	2	1	2
O=C(NCCc1c[nH]c2ccccc12)C(=O)NCC1OCCCN1S(=O)(=O)c1ccc(F)cc1 (stereo not given)	0.3	19	0	5	1	-1	4	1
O=C1CSC(c2ccc([N+](=O)[O-])cc2)N1Cc1ccccc1 (stereo not given)	2.5	·	·	·	·	·	·	·
COc1ccc(C(=O)O)cc1NC(=S)NC(=O)CSc1ccc(Cl)cc1	-1.8	0	-11	8	-4	6	6	24
O=C(CSc1nnc(COc2ccc(Br)cc2)o1)NC1CCCCC1	2.5	1	1	6	9	-3	2	8
O=C(O)c1cccc(S(=O)(=O)NCCc2ccccc2)c1	2.4	1	-1	0	-2	3	0	6

Two successive entries out of the list so far, quoted:
molecule	MEX-5 binding	AHR activator	Fam108B counter	MCL1-BIM inh	PME-1 primary	GLD-1 TGE inh	Bcl-xL primary	pPAFAH inh
CCCc1cc(=O)[nH]c(SCC(=O)N2CCN(S(=O)(=O)c3ccc(Cl)cc3)CC2)n1	-4.5	8	10	-1	5	0	-1	3
COC(=O)[C@@]1(Cc2ccccc2)[C@H]2C(=O)N(C)C(=O)[C@H]2[C@H]2CN=C(SCc3ccc(C#N)cc3)N21	·	·	·	·	·	·	·	3

Following part.
molecule	MEX-5 binding	AHR activator	Fam108B counter	MCL1-BIM inh	PME-1 primary	GLD-1 TGE inh	Bcl-xL primary	pPAFAH inh
O=C(CCSc1ccc(Br)cc1)c1ccc(O)cc1	-1.3	-2	-3	6	-3	-2	6	4
Cc1c(C(=O)O)[nH]c2c1C(=O)CC(c1ccc(Cl)cc1)C2 (stereo not given)	0.9	0	0	1	1	-1	3	3
COc1ccc(S(=O)(=O)Nc2cc(Cl)ccc2OC)cc1	0.5	5	0	1	9	4	4	1
S=c1nc(-c2ccccc2)c(-c2ccccc2)n[nH]1	-2.7	0	2	10	-7	2	15	2
COc1ccc(S(=O)(=O)CCc2nnc(NC(=O)c3cccs3)s2)cc1	2.6	-1	-3	2	-4	-5	1	-2
